# Screening data deposited in PubChem by National Center for Advancing Translational Sciences (NCATS).
# ATXN2 expr inh: inhibitors of ATXN2 expression; 360,000 compounds, 0.72% hits; HEK-293 ATXN2-luciferase reporter, luminescence, 24 h; Potency, µM (top dose mostly 57 µM), inactives show at the top dose activity change, negative = inhibition, most hits filed as inhibitors; note: potency is the fitted concentration of half-maximal effect; % is set by controls: 0 for no effect and ±100 for the full control effect; nearly all actives have a fitted effect of over 55% in size
#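 ATXN2-luciferase reporter cells (luciferase flanked by upstream and downstream ATXN2 gene portions) were treated 24 h at 37 °C with compounds at up to 57 uM. SteadyGlo luminescence gave expression; GF-AFC fluorescence gave viability.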
# HT1080 IDH1KD tx: kills HT-1080 cells with IDH1 knockdown. HT-1080 IDH1 knockdown viability, ATP luminescence, 48 h. Potency, µM (titrated, usually from 46.1 µM), for the others: top-dose activity, negative = toxicity, hits mostly cytotoxic. 360,000 compounds, 2% hits;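 note: potency is the fitted concentration of half-maximal effect; 0% = DMSO wells and -100% = cell-free medium wells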
#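 In this qHTS, HT-1080 cells depleted of IDH1 are exposed for 48 h at 37 °C to compound titrations. Toxicity is scored from CellTiter-Glo luminescence, with DMSO as full viability and medium alone as none.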
# HT1080-NT tox: kills 2HG-producing HT-1080-NT fibrosarcoma cells. HT-1080-NT fibrosarcoma viability, CellTiter-Glo ATP luminescence, 48 h. Potency, µM (top dose mostly 46.1 µM), without a hit: top-dose activity, negative = less viability, usual class: cytotoxic. 360,000 compounds, 1.6% hits. AID 686970;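 note: NT is the 2HG producing partner of a matched IDH1 knockdown line; potency is the fitted concentration of half-maximal effect; 0% = DMSO-treated cells and -100% = media-only wells without cells; nearly all actives have a fitted effect of over 55% in size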
#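 Read-out is CellTiter-Glo luminescence after 10 minutes at room temperature, following 48 hours' compound treatment of HT-1080-NT cells (750 cells/well, RPMI, 5% FBS, 37 degrees C).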
# SW480 rerep: inducers of DNA re-replication in SW480 colon cancer cells; AID 624297; Potency, µM (titrated, usually from 46.1 µM), for the others: at the top dose re-replication activation, most hits filed as activators; 340,000 compounds, 1.8% hits; SW480 DNA re-replication, Hoechst DNA content imaging, 48 h; note: potency is the fitted concentration of half-maximal effect; % of control where 0% means no effect; nearly all actives have a fitted effect of over 55% in size
#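 Quantitative HTS format with DMSO vehicle controls; 48 hr drug incubation at 37 C, then 40 min Hoechst staining and scanning imager measurement at 405 nm excitation.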
# IL-1B inflam inh: blocks inflammasome-driven IL-1 beta release; THP-1 LPS/ATP IL-1B secretion, AlphaLISA, 16 h; hits give low values; activity change, % at 57.5 µM; 360,000 compounds, 4.7% hits; in the data active = activity change below about -50%; inconclusive = mostly about -30% to -49%; note: % is set by controls: 0 for no effect and ±100 for the full control effect
#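 THP-1 cells pretreated 1 hr with compounds (up to 57.5 uM final), then stimulated with LPS (250 ng/mL final) plus ATP (1.25 mM final); secreted IL-1B measured by AlphaLISA after 16 hr, decreased signal indicating inhibition.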
# MCF10A rerep: DNA re-replication induction in MCF 10a cells; 350,000 compounds, 2.9% hits; MCF 10A DNA re-replication, Hoechst nuclear intensity, 48 h; AID 624296; Potency, µM (series often up to 46.1 µM), for inactives: at the top dose activity, positive = re-replication, usual class: activators; note: potency is the fitted concentration of half-maximal effect; % of control where 0% means no effect; nearly all actives have a fitted effect of over 50% in size
# KB-3-1 cytotox: kills parental KB-3-1 adenocarcinoma cells. KB-3-1 viability, CellTiter-Glo ATP luminescence, 72 h. Potency, µM (doses to about 46.1 µM), for the others: top-dose activity change, negative = cytotoxic, most hits filed as cytotoxic. 400,000 compounds, 1.4% hits; note: potency is the fitted concentration of half-maximal effect; % is set by controls: 0 for no effect and ±100 for the full control effect; nearly all actives have a fitted effect of over 60% in size
#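 72 h, 37 °C compound treatment of KB-3-1 parental cells; CellTiter-Glo added, 10 min, luminescence read. Data corrected against DMSO-only plates and normalized before curve fitting.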
# KB-V1 cytotox: KB-V1 MDR subline cytotoxicity. 400,000 compounds, 3.4% hits. KB-V1 MDR cells viability, CellTiter-Glo, 72 h. AID 1347076. Potency, µM (titrated, usually from 46.1 µM), for the others: top-dose activity change, negative = cytotoxicity, hits mostly cytotoxic; note: potency is the fitted concentration of half-maximal effect; % is set by controls: 0 for no effect and ±100 for the full control effect; nearly all actives have a fitted effect of over 60% in size
#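 Compound-treated KB-V1 multidrug-resistant cells, 72 h, 37 degrees C; viability by CellTiter-Glo. Fitted qHTS curves give the values.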
# * = called active by the depositor; i = inactive; ? = inconclusive; . = no result given; [ ] = dose if it differs, or a comment. Unless noted, calls come from the whole dose curve; as a rule, active = well fitted curve in the direction sought with a large enough effect; inconclusive = small, poorly fitted or top-dose-only effect, or another doubt; inactive = no such curve, though single readings can be large; an effect the other way counts as inactive or inconclusive. The list is partial; count on the stated rates, not on these rows.
item	compound	ATXN2 expr inh	HT1080 IDH1KD tx	HT1080-NT tox	SW480 rerep
1	Cc1ccc(-n2nc(C)c(C3(O)C(=O)N(C(C)C)c4ccccc43)c2N)cc1 (stereo not drawn)	-4%	2%	-1%	.
2	C=CC[C@@H]1Cc2c(Br)ccc(Br)c2[C@@H](CC=C)N1	-3%	17%	2%	-3%
3	CCOc1ccccc1NC(=O)c1cccc(N2C(=O)CCC2=O)c1	2%	9%	19%	5%
4	C/C(=N\N=C1\NC(=O)CC(C(=O)O)S1)c1ccc(F)cc1 (stereo not drawn)	1%	15%	13%	-7%
5	CC(C)COc1ccc(-c2nnc(-c3ccncc3)o2)cc1	41%[activator]	0%	3%	-2%
6	CC(=O)c1ccc(NC(=O)CSc2ccc(-c3ccco3)nn2)cc1	6%	3%	-1%	-10%
7	COc1cc(/C=C/c2sc3ccccc3[n+]2CCCS(=O)(=O)[O-])ccc1O	20%	-13%	-11%	2%
8	COC(=O)C1=NN(c2cccc(C)c2)C2C(=O)N(c3ccccc3OC)C(=O)C12 (stereo not drawn)	3%	4%	1%	-7%

item	IL-1B inflam inh	MCF10A rerep	KB-3-1 cytotox	KB-V1 cytotox
1	8	-3%	-3%	0%
2	0	?	-6%	?
3	23	-5%	-4%	5%
4	45	-5%	-13%	20%
5	4	14%	-14%	?
6	i	-6%	-1%	?
7	2	-18%	-4%	6%
8	-8	-3%	12%	2%

# (continued)
item	compound	ATXN2 expr inh	HT1080 IDH1KD tx	HT1080-NT tox	SW480 rerep
9	CN(c1ccccc1)S(=O)(=O)c1ccc(C(=O)OCC(=O)NC(N)=O)cc1	.	-1%	-3%	?
10	CC(C)n1c(SCC(=O)NCc2ccco2)nnc1C1CC1	7%	-5%	-8%	-6%
11	NC(=O)NN=C1CCC(OCc2ccccc2)CC1CC(=O)O (stereo not drawn)	10%	9%	15%	.
12	COC(=O)CN1C(=O)[C@H]2[C@@H](c3ccc(C)o3)N3C(=O)CN(CCO)C(=O)[C@@]3(C)[C@H]2C1=O	13%	13%	10%	0%
13	CC(=O)c1ccc(NCC(=O)N2CCN(c3ccccc3)CC2)cc1	-11%	18%	12%	-3%
14	CCN(CC)S(=O)(=O)c1ccc(OC)c(NC(=O)Cc2cccs2)c1	2%[11.3 µM]	-2%	-8%	0%
15	Cc1cc([N+](=O)[O-])cc2c1NC(=O)C2(O)N1CCCC(C)C1 (stereo not drawn)	.	-12%	4%	-4%
16	O=C(CSc1nccc(=O)[nH]1)N1c2ccccc2CCc2ccccc21	-2%	12%	4%	-2%

item	IL-1B inflam inh	MCF10A rerep	KB-3-1 cytotox	KB-V1 cytotox
9	22	-1%	10%	-5%
10	15	0%	.	.
11	-13	.	0%	-2%
12	39	-27%	-2%	-6%
13	16	2%	8%	6%
14	23	-1%	-2%	-18%
15	10	4%	0%	0%
16	22	15%	-1%	0%

# Limited to HT1080-NT tox, MCF10A rerep and IL-1B inflam inh (two entries from above):
nr | compound | HT1080-NT tox | MCF10A rerep | IL-1B inflam inh
11 | NC(=O)NN=C1CCC(OCc2ccccc2)CC1CC(=O)O (stereo not drawn) | 15% | . | -13
13 | CC(=O)c1ccc(NCC(=O)N2CCN(c3ccccc3)CC2)cc1 | 12% | 2% | 16

# New compounds follow
item	compound	ATXN2 expr inh	HT1080 IDH1KD tx	HT1080-NT tox	SW480 rerep
17	CCNC(=S)N/N=C/c1ccc(C#N)cc1	-36%	0%	2%	-11%
18	Cc1ccc(NC(=O)CCc2nc3sc4c(c3c(=O)[nH]2)CCCC4)nc1	-1%	1%	3%	-2%
19	Cc1nn(C)cc1CNC(=O)c1cnn2c1NC(c1ccc(Br)cc1)CC2C(F)(F)F (stereo not drawn)	3%	-24%	-4%	-9%
20	CCCNC(=O)C1(S(=O)(=O)c2ccccc2)CC=CC1	6%	12%	10%	5%
21	O=C(NNC(=O)c1ccccc1Cl)c1ccco1	19%	22%	20%	0%
22	O=S(=O)(Cc1ccccc1Cl)c1ncn[nH]1	-28%	-2%	1%	-3%
23	CN(C)CCN(C(=O)CN1C(=O)c2ccccc2C1=O)c1nc2cc3c(cc2s1)OCO3	13%	-6%	-3%	-5%
24	CC(Cc1ccccc1)C(=O)N1CCN(C)CC1 (stereo not drawn)	1%	7%	-3%	-13%

item	IL-1B inflam inh	MCF10A rerep	KB-3-1 cytotox	KB-V1 cytotox
17	0	17%	-23%	-3%
18	24	1%	4%	0%
19	11	-3%	2%	-22%
20	17	-8%	7%	-1%
21	-2	-4%	0%	5%
22	.	-16%	?	1%
23	-3	3%	-8%	0%
24	-5	0%	0%	23%

# Continued, starting with the last 5 of the part before.
item	compound	ATXN2 expr inh	HT1080 IDH1KD tx	HT1080-NT tox	SW480 rerep
20	CCCNC(=O)C1(S(=O)(=O)c2ccccc2)CC=CC1	6%	12%	10%	5%
21	O=C(NNC(=O)c1ccccc1Cl)c1ccco1	19%	22%	20%	0%
22	O=S(=O)(Cc1ccccc1Cl)c1ncn[nH]1	-28%	-2%	1%	-3%
23	CN(C)CCN(C(=O)CN1C(=O)c2ccccc2C1=O)c1nc2cc3c(cc2s1)OCO3	13%	-6%	-3%	-5%
24	CC(Cc1ccccc1)C(=O)N1CCN(C)CC1 (stereo not drawn)	1%	7%	-3%	-13%
25	COc1cccc(NC(=O)c2ccc(NS(=O)(=O)c3cccs3)cc2)c1	-8%	0%	-13%	-2%
26	CC(=O)OCC1=C(C(=O)O)N2C(=O)C(NC(=O)c3ccc(F)cc3)C2SC1 (stereo not drawn)	.	-4%	-6%	?
27	C=CCN1C(=O)/C(=c2\sc3nc(=O)c(Cc4ccccc4)nn3c2=O)c2ccccc21	-29%	-2%	-1%	-7%
28	O=C1Nc2cc(C(=O)N3CCOCC3)ccc2S/C1=C\c1ccccc1	.	-2%	4%	1%
29	O=C(Nc1ccccc1Oc1ccccc1)c1cccc([N+](=O)[O-])c1	1%	-1%	-1%	-3%
30	O=C(CSc1cn[nH]n1)Nc1ccccc1F	-15%	-6%	-11%	-5%
31	CC1CN(C(=O)COC(=O)Cc2c(F)cccc2Cl)CC(C)O1 (stereo not drawn)	8%	2%	-2%[9.24 µM]	-5%
32	CCOc1ncccc1C(=O)NNC(=O)CSc1ccc(Cl)cc1	-33%	2%	-2%[9.24 µM]	-13%

item	IL-1B inflam inh	MCF10A rerep	KB-3-1 cytotox	KB-V1 cytotox
20	17	-8%	7%	-1%
21	-2	-4%	0%	5%
22	.	-16%	?	1%
23	-3	3%	-8%	0%
24	-5	0%	0%	23%
25	7	5%	-13%	-17%
26	15	?	3%	-4%
27	-14	0%	9%	7%
28	-24	-2%	-1%	?
29	0	10%	3%	18µM*
30	-4	10%	3%	?
31	-7	13%	10%	?
32	-23	-2%	19%	-23%

# Next entries
item	compound	ATXN2 expr inh	HT1080 IDH1KD tx	HT1080-NT tox	SW480 rerep
33	CCCc1[nH]nc2c1C(c1ccc(OCCN3CCOCC3)c(OC)c1)C(C#N)=C(N)O2 (stereo not drawn)	16%	2%	6%	-1%
34	O=C(Nc1ccc2oc(=O)ccc2c1)c1ccco1	20%	0%	2%	-2%
35	CCOC(=O)CC1COCCN1C(=O)c1cc(COc2ccc(F)c(F)c2)on1 (stereo not drawn)	47%[activator]	4%	6%	-11%
36	CC(C)C(C(=O)N1CCOCC1)N1C(=O)c2ccccc2C1=O (stereo not drawn)	4%	3%	-2%	-2%
37	CCOc1ccc(NC(=O)c2cnsn2)cc1	-36%	5%	15%	-2%
38	COc1ccc(NC(=O)N2CCCC2C(=O)Nc2cccc(C)c2C)cc1 (stereo not drawn)	2%	-10%	-1%	-4%
39	CC(CN1CCOCC1)C(=O)c1ccccc1 (stereo not drawn)	6%	6%	2%	-3%
40	CCOc1ccc(C(=O)N2CCCC2)cc1	7%	6%	-8%	?

item	IL-1B inflam inh	MCF10A rerep	KB-3-1 cytotox	KB-V1 cytotox
33	?	-2%	11%	17%
34	-7	0%	-2%	-4%
35	64	0%	16%	?
36	5	-2%	5%	-2%
37	-9	?	9%	3%
38	-10	7%	12%	-5%
39	-3	2%	2%	2%
40	3	?	5%	-12%

# (more compounds)
item	compound	ATXN2 expr inh	HT1080 IDH1KD tx	HT1080-NT tox	SW480 rerep
41	COc1cccc(/C=C(\CC(=O)O)c2nc3ccccc3s2)c1	16%	5%	2%	-2%
42	CCN1C(=O)N/C(=C/c2ccc(C)o2)C1=O	7%	4%	17%	?
43	C/C(=N\NC(=O)c1cccnc1)c1c(O)cc(C)oc1=O	6%	4%	1%	-6%
44	Cc1cc2occ(CC(=O)NNC(=O)c3ccccc3)c2cc1C	-10%	-1%	-2%	26%
45	CCOC(=O)C1CCN(C(=O)c2ccc3c(c2)NC(=O)/C(=C\c2ccc(C)cc2)S3)CC1	?	-2%	-4%	?
46	Cc1ccc(S(=O)(=O)CC(=O)c2cc3cccc(C)c3oc2=O)cc1	.	1%	-3%	-1%
47	Cc1[nH]c(=O)[nH]c(=O)c1S(=O)(=O)Nc1cccc(C(F)(F)F)c1	4%	3%	4%	-11%
48	Cn1c(CNC(=O)c2ccc(F)cc2)nc2ccccc21	5%	2%	-2%	-4%

item	IL-1B inflam inh	MCF10A rerep	KB-3-1 cytotox	KB-V1 cytotox
41	1	0%	-5%	8%
42	0	?	0%	-3%
43	14	-4%	2%	6%
44	-14	3%	0%	4%
45	0	?	-12%	17%
46	-6	2%	5%	-7%
47	6	-4%	0%	0%
48	27	-1%	-9%	-8%

# (further entries)
item	compound	ATXN2 expr inh	HT1080 IDH1KD tx	HT1080-NT tox	SW480 rerep
49	CN(C)C(=O)c1cccc(-c2cnc3c(NC=O)cc(-c4ccc(F)cc4)cn23)c1	25µM*	23µM*	?	.
50	C[C@H](NC(=O)c1nc[nH]c1C(=O)NC1CCN(C(=O)OC(C)(C)C)CC1)C(=O)OCc1ccccc1	-5%	0%	-1%	-4%
51	CCOc1ccc(CNC(=O)c2nnc(CS(=O)(=O)c3ccccc3)o2)cc1OC	-14%	6%	-7%	4%
52	CC(=O)OCC1=C(C(=O)O)N2C(=O)C(NC(=O)COc3ccc(F)cc3)C2SC1 (stereo not drawn)	-1%	3%	2%	?
53	Clc1nc(NCCc2ccccc2)c2cn[nH]c2n1	-13%	-27%	-10%	6%

item	IL-1B inflam inh	MCF10A rerep	KB-3-1 cytotox	KB-V1 cytotox
49	?	.	0%	?
50	67	-3%	-8%	0%
51	3	9%	4%	6%
52	7	12%	-4%	-25%
53	?	?	-5%	1.2µM*
